Source: PubChem
Mtb hypoxia inh: inhibitors of hypoxia-regulated fluorescent reporter in Mycobacterium tuberculosis. M. tuberculosis hypoxia-regulated fluorescent reporter, fluorescence. fluorescence inhibition, % (concentration not given with the values). 300,000 compounds, 0.1% hits. AID 1159583;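 active means 35 to 45% if threefold the growth effect, above 45% if 1.5-fold the growth effect; inactive means the rest, general growth blockers included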;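 further: wells of about 50 µL received 100 nL stock; 0% = vehicle wells and 100% = reference inhibitor wells; whole bacteria with a GFP reporter of the hypoxia response; strong numbers were not always called active; many hits fall short of the cut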
Autofluor counter: compound fluorescence in toxin protease inhibitor counterscreen. fluorescence intensity (test concentration not listed). compound autofluorescence counterscreen, microsphere flow cytometry; stronger effect = higher value. 360,000 compounds, 3.1% hits;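 active means at least 3 SD above the mean of all compounds, about 16000 in these data; inconclusive means too few beads counted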;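 further: 100 nL of 1 mM stock went into each well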
Sa ugtP lethal: growth inhibition of S. aureus ugtP deletion strain. S. aureus RN4220 ugtP deletion, OD600 growth, 16 h; some inactives read as strong as hits. growth inhibition, % (no concentration beside the values). 330,000 compounds, 0.54% hits. AID 1259309;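 active means z-score under -3 and OD600 up to 0.15 on both plates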;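 further: plate controls were untreated wells for no effect and antibiotic for full effect; wells of about 80 µL received 100 nL stock; the first replicate is given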
PrP UTR inh: inhibition of PrP 5' UTR reporter expression; cell-based PrP 5' UTR mRNA reporter, plate reader; inhibition, % (no concentration beside the values); 340,000 compounds, 0.35% hits; AID 488862;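 active means every replicate at 50% or more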;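 further: 0 = median of the neutral control wells; tested in H4 reporter cells; numbers are from one replicate; inactives centre near -14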
BJeLR viability: BJeLR cell viability loss | BJeLR (HRASV12) viability, CellTiter-Glo ATP luminescence, 48 h; reference of the scale not given here | inhibition, % (test concentration not listed) | 300,000 compounds, 0.17% hits | AID 1554;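 active means replicate mean above 50%; inconclusive means above 50% but judged a plate artefact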;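 further: 50 nL library stock added to about 25 µL; numbers are from one replicate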
RN4220 kill: S. aureus RN4220 growth inhibition; OD600, 16 h; inhibition, % (no concentration beside the values); 330,000 compounds, 0.33% hits; AID 1259311;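 active means z-score of -3 or lower and OD600 up to 0.18 on both plates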;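 further: plate controls were untreated cells for no effect and reference antibiotic for full effect; stock transfer was 100 nL into about 80 µL; one replicate is shown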
Mtb hypoxia inh growth: recorded beside Mtb hypoxia inh, whose call it bears; growth inhibition, %; measured here: M. tuberculosis growth (absorbance);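 0% = vehicle and 100% = reference antibiotic; read after six days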
* marks the source's active call; other numbers are inactive results; u = inconclusive; x = no result given.

SMILES	Mtb hypoxia inh	Mtb hypoxia inh growth	Autofluor counter	Sa ugtP lethal	PrP UTR inh	BJeLR viability	RN4220 kill
CC(C)CC(NC(=O)C1CCC(C)CC1)C(=O)N1CCN(c2ccccn2)CC1 (stereo not drawn)	x	x	5607	5	-15	0	0.5
CCC(=O)N1CCCc2cc(S(=O)(=O)N3CCN(c4ccccc4F)CC3)ccc21	1	0	5480	-7	-9	7	-15
Cc1cc(C(=O)NCc2cccs2)no1	17	21	11032	4	x	6	3.2
COc1cc(C(=O)Oc2cccc(/C=N/NC(=O)c3cccnc3)c2)cc(OC)c1OC	x	x	4206	x	-29	0	x
CC#CCN1c2ccccc2[C@]23C[C@@H](C(=O)OC)N(C(=O)NCCBr)C2=NC(C(=O)OC)=C(C(=O)OC)[C@H]13	x	x	3851	x	-20	-3	x
CN(C)S(=O)(=O)c1ccc(=S)[nH]c1	2	6	3789	3	-6	-1	1.6
COc1ccc(C2/C=C\CN(Cc3ccco3)CC(=O)N2Cc2ccc(F)cc2)cc1 (stereo not drawn)	x	x	3002	x	-2	-2	x
COc1ccc(OC)c(NC(=O)c2sc3nc(C)cc(C)c3c2N)c1	0	-14	4230	4	-9	15	6.6
O=C(Nc1ccc([N+](=O)[O-])cc1)Nn1cnnc1	3	-17	4789	-2	-13	13	2.9
COc1cnc(-c2ccccn2)nc1Sc1ccccc1	10	18	3644	7	-16	-3	8.2
CC(C)CN1C(=O)NC(NC(=O)c2ccco2)(C(F)(F)F)C1=O (stereo not drawn)	4	6	2827	-6	-6	2	4.2
C=CCN1C(=O)C(O)(CC(=O)c2c(C)n[nH]c2C)c2cc(Br)ccc21 (stereo not drawn)	x	x	3239	2	-24	1	1.1
FC(F)(Cl)c1nnc2ccc(Cl)nn12	x	x	4506	5	5	0	5.2
COc1ccc(S(=O)(=O)N2CCC(C(=O)Oc3ccc(C)cc3)CC2)cc1OC	0	11	u	-1	-9	-6	-1.2
NNC(=O)c1cnn(-c2ccccc2)c1C(F)(F)F	8	3	4498	4	-3	2	-3.0
CC(=O)Nc1cccc2c1C(=O)N(c1cccc(C)c1)C2=O	x	x	4366	1	-20	-2	0.9
O=C(c1cc(-c2ccc(Cl)cc2)on1)N1CCCC1	18	19	5711	-2	-70	-3	7.2
CC(=O)c1cccc(CN2CCCC(CCC(=O)NCc3ccc(C)o3)C2)c1 (stereo not drawn)	6	-2	4987	8	-4	0	3.0
S=c1[nH]nc(COc2ccccc2)n1/N=C/c1ccc(Br)cc1	x	x	3598	x	-18	8	x
CN(C)C(CNC(=O)c1cccc(S(=O)(=O)NCc2ccccc2)c1)c1ccccc1 (stereo not drawn)	6	-1	u	6	-21	x	4.6

A run of entries from further up, as a working copy:
SMILES	Mtb hypoxia inh	Mtb hypoxia inh growth	Autofluor counter	Sa ugtP lethal	PrP UTR inh	BJeLR viability	RN4220 kill
NNC(=O)c1cnn(-c2ccccc2)c1C(F)(F)F	8	3	4498	4	-3	2	-3.0
CC(=O)Nc1cccc2c1C(=O)N(c1cccc(C)c1)C2=O	x	x	4366	1	-20	-2	0.9
O=C(c1cc(-c2ccc(Cl)cc2)on1)N1CCCC1	18	19	5711	-2	-70	-3	7.2
CC(=O)c1cccc(CN2CCCC(CCC(=O)NCc3ccc(C)o3)C2)c1 (stereo not drawn)	6	-2	4987	8	-4	0	3.0
S=c1[nH]nc(COc2ccccc2)n1/N=C/c1ccc(Br)cc1	x	x	3598	x	-18	8	x
CN(C)C(CNC(=O)c1cccc(S(=O)(=O)NCc2ccccc2)c1)c1ccccc1 (stereo not drawn)	6	-1	u	6	-21	x	4.6

Going on with the list.
SMILES	Mtb hypoxia inh	Mtb hypoxia inh growth	Autofluor counter	Sa ugtP lethal	PrP UTR inh	BJeLR viability	RN4220 kill
O=C(CN1c2cccc3cccc(c23)S1(=O)=O)NC1CCCCC1	22	7	3656	0	-3	x	1.4
CC1CCCC(C)N1C(=O)CNCc1ccc2c(c1)OCO2 (stereo not drawn)	13	11	3558	7	-10	-13	0.2
COc1cc2c(cc1OC)C(c1ccc(Br)cc1)NC(=O)C2 (stereo not drawn)	-4	1	u	0	-14	-2	0.2
CCC(C(=O)NCc1ccco1)N(C(=O)CNS(=O)(=O)c1ccccc1)c1ccccc1C (stereo not drawn)	13	8	4629	11	-2	-4	5.0
COc1cccc(CNS(=O)(=O)c2cc3c4c(c2)CCN4C(=O)CC3)c1	-3	-7	x	4	-24	-4	3.9
N/C(Cn1cncn1)=N\NC(=O)c1ccc(Cl)cc1Cl	x	x	4572	x	-16	-6	x
CCCn1c(=O)c(C(=O)NCCCc2ccccc2)c(O)c2ccccc21	3	3	3941	30	6	-9	1.7
C=C(C)C1CC=C(C)C(=NNC(=O)COc2ccccc2C)C1 (stereo not drawn)	7	3	x	-2	x	x	15
CCc1occc(=O)c1Oc1cc(NN2CCCCC2)c([N+](=O)[O-])cc1[N+](=O)[O-]	11	6	4330	6	-27	5	6.5
Cc1nn(C)c(C(=O)N/N=C/c2ccccc2)c1[N+](=O)[O-]	x	x	7164	x	-15	-12	x

Copied from the list:
For BJeLR viability, `Cc1nn(C)c(C(=O)N/N=C/c2ccccc2)c1[N+](=O)[O-]` has the entry -12
For BJeLR viability, `COc1cccc(CNS(=O)(=O)c2cc3c4c(c2)CCN4C(=O)CC3)c1` has the entry -4
For Mtb hypoxia inh growth, `O=C(CN1c2cccc3cccc(c23)S1(=O)=O)NC1CCCCC1` has the entry 7

Part of the list above, as labelled records:
CCc1occc(=O)c1Oc1cc(NN2CCCCC2)c([N+](=O)[O-])cc1[N+](=O)[O-]
  Mtb hypoxia inh = 11	Mtb hypoxia inh growth = 6	Autofluor counter = 4330	Sa ugtP lethal = 6	PrP UTR inh = -27	BJeLR viability = 5	RN4220 kill = 6.5

COc1cc2c(cc1OC)C(c1ccc(Br)cc1)NC(=O)C2 (stereo not drawn)
  Mtb hypoxia inh = -4	Mtb hypoxia inh growth = 1	Autofluor counter = u	Sa ugtP lethal = 0	PrP UTR inh = -14	BJeLR viability = -2	RN4220 kill = 0.2

(further entries)
SMILES	Mtb hypoxia inh	Mtb hypoxia inh growth	Autofluor counter	Sa ugtP lethal	PrP UTR inh	BJeLR viability	RN4220 kill
Cc1ccc(NC(=O)c2snnc2C)cc1Cl	3	-7	3502	9	-4	2	2.0
COC(=O)c1ccc2c(c1)S(=O)(=O)NC(=NCc1ccco1)S2	15	20	2496	-7	-16	-1	-5.5
CNC(=O)NC1CCCc2ccccc21 (stereo not drawn)	2	4	23281*	-7	-2	3	5.2
C=CCc1cccc2cc(C(=O)Nc3ccc(S(=O)(=O)Nc4nnc(CC)s4)cc3)c(=O)oc12	8	8	1931	-6	-26	13	3.4
Cn1c(=O)[nH]c(=O)c2c1nc(NCCCn1ccnc1)n2Cc1ccc(F)cc1	6	14	8753	-1	-9	-9	2.9
N#CCN1CCC2(O)CCCCC2C1c1ccc2c(c1)OCO2 (stereo not drawn)	5	-7	4222	-1	-12	2	0.7
COC(=O)C1=C(c2cc3ccccc3s2)CC2CCC1N2C(=O)N1CCCC1 (stereo not drawn)	10	9	x	9	x	x	9.8
Cc1ncsc1CCC(=O)N1CCCC(C(=O)c2ccc3c(c2)OCO3)C1 (stereo not drawn)	15	6	4310	1	-18	-28	0.6
Cc1cc(SCc2cc(=O)n3ccsc3n2)nc2ccccc12	3	3	2182	4	-12	-5	9.5
O=S(=O)(c1cccc2nsnc12)N1CCN(Cc2ccccc2)CC1	20	0	4085	9	-40	6	-1.8
O=C(Nc1ccc(S(=O)(=O)Nc2nccs2)cc1)/C(=C/c1ccccc1Cl)NC(=O)c1ccccc1	x	x	10825	x	-14	15	x
Cc1onc(-c2ccccc2)c1CNS(=O)(=O)c1cccc(Cl)c1	8	13	3785	1	-11	-2	6.2
CCOC(=O)N/N=C\c1ccccc1OC/C=C/c1ccccc1	x	x	6111	x	-19	5	x
CSc1ccccc1C(=O)Nc1ccccc1C(=O)NC(C)C	8	8	4562	3	-35	-16	-0.8
CCOc1ccc(OCCCCNC(C)(C)C)cc1	0	13	2068	7	-4	4	5.8
Cc1n[nH]c(C)c1NC(=O)CSc1nnnn1-c1cccc(F)c1	3	-3	2778	11	-3	x	6.1
CC(NC(=O)CNC(=O)C1O[C@@H]2OC(C)(C)O[C@@H]2[C@H]2OC(C)(C)O[C@@H]12)C(=O)O (stereo partly drawn)	-10	-7	2136	6	1	4	4.2
Cc1ccc(CNC(=O)C2CCC(=O)N2Cc2ccc(F)cc2)cc1 (stereo not drawn)	-1	-3	4049	2	-17	-4	3.4
CC(C)C[C@H](NC(=O)[C@@H](Cc1ccccc1)n1c(=O)[nH]c2ccccc2c1=O)C(=O)N[C@@H](Cc1ccccc1)C(=O)O	x	x	5639	-5	-2	3	7.3
O=C(Cn1nc(-c2ccccc2)ccc1=O)NCc1ccc(F)cc1	0	7	4273	-1	-7	3	-0.7

The closing 2 compounds of the part before are carried over, then new ones follow:
SMILES	Mtb hypoxia inh	Mtb hypoxia inh growth	Autofluor counter	Sa ugtP lethal	PrP UTR inh	BJeLR viability	RN4220 kill
CC(C)C[C@H](NC(=O)[C@@H](Cc1ccccc1)n1c(=O)[nH]c2ccccc2c1=O)C(=O)N[C@@H](Cc1ccccc1)C(=O)O	x	x	5639	-5	-2	3	7.3
O=C(Cn1nc(-c2ccccc2)ccc1=O)NCc1ccc(F)cc1	0	7	4273	-1	-7	3	-0.7
COc1ccc(OC)c(NC(=O)N2CCCc3ccccc32)c1	2	8	5349	1	-4	-2	1.9
CC(=NNC(=O)COc1ccccc1[N+](=O)[O-])c1cccs1	0	1	x	4	x	x	-6.6
Cc1sc2ncnc(SCC(=O)c3ccc4c(c3)OCCO4)c2c1-c1ccccc1	9	4	1937	7	-5	-12	4.0
Nc1ccc(S(=O)(=O)Nc2nccc(/C=C/c3ccc(Br)s3)n2)cc1	-2	4	1784	2	-37	0	5.6
CCCCNC(=S)Nc1ccc(OC)nc1	6	9	4439	3	-41	2	1.6
Cc1ccc(C2C(C(N)=S)=C(N)OC3=C2C(=O)CC(C)(C)C3)cc1 (stereo not drawn)	x	x	2158	x	-52	2	x
CC(N=Cc1cc([N+](=O)[O-])ccc1O)c1ccccc1 (stereo not drawn)	14	4	2497	67	-17	-11	85*
O=C(/C=C/c1ccc(Br)o1)OCc1nc2ccsc2c(=O)[nH]1	x	x	5238	x	2	3	x
C=C(C)Cn1c(CCCNC(=O)CCC)nc2ccccc21	2	4	3908	3	-18	5	3.3
Cc1[nH]nc2c1C1(CCOCC1)C(C#N)=C(N)O2	6	9	11422	14	-33	2	1.4
CCCN(C(=O)COc1ccc(C(C)=O)cc1OC)C1CCS(=O)(=O)C1 (stereo not drawn)	7	11	3657	3	-7	x	0.3
O=C(CCc1c[nH]c2ccccc12)NCC(=O)Nc1ccc(F)c(F)c1F	10	9	4072	14	-7	1	2.9
COc1cc(C(c2c(O)cc(C)[nH]c2=O)c2c(O)cc(C)[nH]c2=O)ccc1O	6	1	3935	12	-9	-2	-0.4
O=C(N1CCN(c2ncccn2)CC1)C12CC3CC(CC(C3)C1)C2	7	1	6024	3	-11	-3	2.6
O=C(c1ccc2nc[nH]c2c1)N1CCN(S(=O)(=O)c2cccc(Cl)c2)CC1	5	-2	5314	7	-8	x	3.6
CSCC[C@H](NC(=O)[C@@H]1CSC2c3ccccc3C(=O)N21)C(=O)N1CCC[C@H]1CO (stereo partly drawn)	x	x	5838	-2	-27	-6	-2.3
COc1ccc(OC)c(/C=C/C(=O)Nc2ccc3c(c2)CCC3)c1	-4	3	7987	-3	-14	-2	12
COC(=O)[C@H](CCSC)NC(=O)NC1CCN(Cc2ccccc2)CC1	x	x	4369	x	-11	-3	x
O=C(CSc1nc2ccccc2o1)Nc1nc(-c2ccccc2)c(-c2ccccc2)s1	-2	7	2978	-8	-28	-15	11
CCOCCCNC(=O)C(=O)NCCCOCC	7	4	7003	0	-29	-5	8.4
CN(C(=O)c1cccc(NC(=O)Cc2ccc(NC(=O)C3CCN(S(=O)(=O)c4cccc([N+](=O)[O-])c4)CC3)cc2)c1)C1CCCC1	-6	2	2825	2	-25	x	3.6
CCC(C)(C)NC(=O)c1cc(S(=O)(=O)N2CCc3ccccc32)cn1C	8	2	4520	1	10	12	2.3
NC(=O)c1ccc(NC(=O)COC(=O)/C=C/c2ccc(Br)o2)cc1	-2	5	8051	-5	-2	x	1.5
CN(Cc1ccccc1)S(=O)(=O)c1ccc2c(c1)OCCO2	x	x	3839	5	-17	7	5.0
COc1ccc2cnnc(SCC(=O)Nc3ccccc3)c2c1OC	13	12	10110	11	-11	1	6.8
CCCCOCCCNC(=O)c1ccc(OC)cc1	x	x	2794	2	-17	-5	2.8
